Sfp inh: blocks B. subtilis Sfp PPTase activity. Q9F4F7. Biochemical Sfp PPTase activity, qHTS. Potency, µM, without a hit: max response, negative = inhibition, usual class: inhibitors. hit rate 3.5% among 310,000. AID 1490; active = well fitted inhibition curve with a large enough effect; inconclusive = small, poorly fitted or top-dose-only effect, or another doubt; inactive = no such curve, though single readings can be large or run the other way;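 also: the enzyme is Sfp with the accession as filed and its product quenches rhodamine fluorescence; potency is read from the fitted curve at half-maximal effect; 0% = enzyme reaction without inhibitor and -100% = no enzyme wells; top concentration of the series not given in the record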
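Step 1, compound plus 15 nM Sfp-PPTase, 15 min, room temperature. Step 2, add rhodamine-CoA (5 uM) and BHQ-2-YbbR (12.5 uM). Step 3, read 525/598 nm fluorescence at 0 and 30 min.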
gsp antag: gsp mutant antagonism; AID 624288; Potency, µM (doses to about 76.9 µM), without a hit: at the top dose activity change, negative = inhibition, most hits filed as inhibitors; hit rate 0.4% among 340,000; gsp-mutant cells, cAMP HTRF, 30 min; control for the full effect not named in the record; active = falling curve of any shape with a large fitted effect; inconclusive = falling curve, mostly with a smaller effect; inactive = flat or rising curve; cell line not stated here;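 also: intracellular cAMP measured with PDE inhibitor Ro 20-1724 present during compound exposure; potency is read from the fitted curve at half-maximal effect; % is scaled to controls: 0 for no effect and ±100 for the full control effect; nearly all actives have a fitted effect of over 65% in size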
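G418-selected cells were plated in DMEM/10% FBS for 16-24 h at 37C, then treated with compounds plus the PDE inhibitor […] (300 uM solution added) for 30 min at 37C. Intracellular cAMP was measured by HTRF after 30 min lysis at room temperature.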
ClpP mod: qHTS Assay for Activators of ClpP | hit rate 1.9% among 340,000 | ATP-dependent Clp protease proteolytic subunit (Bacillus subtilis (strain 168)), P80244 | purified B. subtilis ClpP, FRET peptide cleavage, 20 min | Potency, µM (titrated, usually from 57.5 µM), for the others: at the highest dose activity change, negative = active | AID 651965, 2013; active = well fitted falling curve with a large enough effect; inconclusive = small, poorly fitted or top-dose-only effect; inactive = no such curve, though single readings can be large or run the other way; also: potency is read from the fitted curve at half-maximal effect; the source files actives as falling curves though it sought activators and does not explain the sign; nearly all actives have a fitted effect of over 65% in size; many hits overshoot -100%
Target sequence (P80244 whole entry, looked up): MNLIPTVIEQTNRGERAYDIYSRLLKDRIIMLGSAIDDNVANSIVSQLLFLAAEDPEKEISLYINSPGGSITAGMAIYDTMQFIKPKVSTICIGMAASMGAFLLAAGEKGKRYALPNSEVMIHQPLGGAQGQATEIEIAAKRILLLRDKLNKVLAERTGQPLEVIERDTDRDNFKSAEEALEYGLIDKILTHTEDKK
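Buffer: 100 mM Tris/HCl pH8, 100 mM KCl, 0.05% low protease BSA, 2.5% glycerol, 0.01% Tween-20. ClpP 10 microg/mL final; 20 min RT; delta FRET normalized to ADEP and DMSO controls.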
gsp agonist: agonists of gsp mutant (McCune-Albright syndrome) | gsp mutant cells, cAMP HTRF, 30 min; control for the full effect not named in the record | Potency, µM (titrated, usually from 76.9 µM), for the others: at the highest dose activation (cAMP increase), most hits filed as activators | hit rate 0.13% among 340,000 | AID 624287; active = well fitted activation curve with a large enough effect; inconclusive = small, poorly fitted or top-dose-only effect, or another doubt; inactive = no such curve, though single readings can be large or run the other way; cell line not stated here;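 also: phosphodiesterase inhibitor Ro 20-1724 added with compounds to block cAMP breakdown; potency is read from the fitted curve at half-maximal effect; nearly all actives have a fitted effect of over 60% in size; about a fifth of the inactives were tested at one dose only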
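Cells stably selected in G418 were plated at 2000/well, grown 16-24 hr, then given compounds in DMSO with the PDE inhibitor […] (300 uM solution added) for 30 min at 37C; cAMP was read by HTRF.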
D2 agonist: agonists of human D2 dopamine receptor (beta-arrestin); activation, % (test concentration not listed); P14416; AID 624465; DiscoveRx PathHunter D2 beta-arrestin, luminescence, 90 min; 100% = 57 uM dopamine signal; hit rate 0.084% among 360,000; in the data active = activation above about 40%; inconclusive = about 15% to 40%; inactive = below about 15%; also: compound concentration not given in the record; the text of the record calls up to 30% inactive
Target sequence (P14416 whole entry, looked up): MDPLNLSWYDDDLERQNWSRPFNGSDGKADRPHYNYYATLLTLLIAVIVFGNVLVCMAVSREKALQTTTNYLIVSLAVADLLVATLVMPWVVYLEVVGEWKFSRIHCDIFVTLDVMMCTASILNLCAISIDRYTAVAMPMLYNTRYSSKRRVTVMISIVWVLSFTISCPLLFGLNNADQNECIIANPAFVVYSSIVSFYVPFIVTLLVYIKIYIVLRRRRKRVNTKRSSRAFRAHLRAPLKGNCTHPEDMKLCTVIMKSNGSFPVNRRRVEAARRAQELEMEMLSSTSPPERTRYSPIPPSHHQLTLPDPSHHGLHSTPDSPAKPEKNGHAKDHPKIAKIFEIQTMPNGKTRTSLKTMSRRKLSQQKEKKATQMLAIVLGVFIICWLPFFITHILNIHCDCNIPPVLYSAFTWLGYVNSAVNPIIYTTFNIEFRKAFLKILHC
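DiscoveRx PathHunter D2 beta-arrestin cells (2,100/well) attached overnight, then compound-stimulated 90 min at 37 C in HBSS/10 mM HEPES/0.1% Tween-20 buffer; beta-galactosidase complementation read by luminescence after 1 h at ambient temperature. Dopamine 57 uM final (EC100) as control.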
Menin MLL FP FL: menin-MLL binding inhibition, fluorescein peptide; Fluorescence polarization, fluorescein-MLL peptide displacement from menin; 290,000 tested, under 10 active; FP activity change, % at 61.4 µM; inconclusive = falling polarisation curve, or a change in total fluorescence; inactive = total fluorescence flat and polarisation flat or rising; no compound was filed as active; the % refers to the polarisation; negative = inhibition;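 also: % of control where 0% means no effect; inhibitors lower the polarisation; unlabelled MLL peptide was the positive control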
PINK1 modulator: modulators of PINK1 expression. PINK1 immunofluorescence, high-content cytometry, 24 h. hit rate 0.2% among 410,000. AID 624263. Potency, µM (highest dose often 76.6 µM), without a hit: at the highest dose activation (PINK1 increase), actives largely listed as activators; active = well fitted activation curve with a large enough effect; inconclusive = small, poorly fitted or top-dose-only effect; inactive = flat fitted curve, though single readings scatter; cell line not stated here;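 also: potency is read from the fitted curve at half-maximal effect; % of control where 0% means no effect; nearly all actives have a fitted effect of over 65% in size; a mitochondrial uncoupler was the plate control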
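Compound titrations (5 concentrations, 24 h) on a stable cell line; DMSO and CCCP controls. Endpoint: fixed-cell PINK1 immunofluorescence with mitochondrial, cell and nuclear markers, scanned by microplate cytometer.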
* = called active by the depositor; ? = inconclusive; . = no result given; & = joins results of further samples; [ ] = remark or other dose. This is a random part of the collection; any-hit rate near 5.1%.

SMILES	Sfp inh	gsp antag	ClpP mod	gsp agonist	D2 agonist	Menin MLL FP FL	PINK1 modulator
COc1ccc(Br)c(Cn2c(C)c(C(=O)N(C)Cc3ccc(F)cc3)sc2=O)c1	.	.	-1.3%	.	5.9	.	-1.4%
Cc1c(NC(=O)CSCc2ccco2)c(=O)n(-c2ccccc2)n1C	14%	13%	.	3%	-0.8	2.4	1.1%
CCOc1ccc(NCC(=O)Nc2ccc(Cl)cc2C)cc1	7%	-5%	-0.3%	-69%[inhibitor]	-3.8	2.8	2.2%[38.3 µM]
Cc1ccc(-c2cc(C(=O)NCc3cnn(C)c3)c3cc(Br)ccc3n2)cc1	-16%	?	-4.4%&1.1%	8%[15.4 µM]	0.3	2.1	?
CCn1c(C)nc2cc(S(=O)(=O)N3CCCCC3)ccc21	0%	-16%	0.4%	-24%	-1.6	-2.7	0.6%
C=CC(=O)NCc1ccc(-c2csnn2)cc1	17%	12%	0.3%	-2%[15.4 µM]	-4.7	-1.8	2.6%
COC(c1ccccc1)c1nnc(CCC(=O)NCCCc2ccccc2)o1 (stereo unspecified)	3%	11%	.	-3%[15.4 µM]	-9.0	-0.2	-0.6%
O=C(Nc1ccc(Br)cc1)C1Cc2ccccc2O/C1=N\O (stereo unspecified)	-24%	8%	0.0%	?	-4.9	2.0	2.9%
COCOCCn1cc(CN2CCS(=O)(=O)N(Cc3ccc(-c4ccc(OC)cc4)cc3)C(C)C2=O)nn1 (stereo unspecified)	.	.	-2.6%	-40%	-2.0	.	0.4%
Cc1cc(F)ccc1NCc1cc2c(cc1[N+](=O)[O-])OCO2	-14%	-29%	-0.2%	-12%	0.4	-2.9	9.5%
Brc1cccc(-c2nnc(-c3ccccc3)o2)c1	-24%	-15%	-7.9%	?	-3.0	1.2	-0.3%
Cc1nc(N2CCOCC2)c(C#N)c2c1COC(C)(C)C2	14%	-7%	32µM*	8%	-3.7	7.7	3.3%[38.3 µM]
CC(=O)Nc1ccc(Oc2nc(C(F)(F)F)nc3ccccc23)cc1	2%	5%	.	18%[15.4 µM]	3.3	-1.6	8.4%
CN1CCC(OC(=O)COc2ccc(Br)cc2)CC1	0%	11%	.	-10%[15.4 µM]	-1.8	-3.6	-1.3%
CC(CCNC(=O)c1ccccc1)(CCNC(=O)c1ccccc1)[N+](=O)[O-]	.	-4%	-6.1%	3%	0.1	.	-5.1%
COc1ccc(NC(=S)N(Cc2ccccn2)Cc2ccccc2Cl)cc1	7%	-9%	.	4%[15.4 µM]	-1.8	-1.5	-1.3%
Cc1ccc(/C=C2\SC(=S)N(CCC(=O)NNC(=O)c3ccccc3O)C2=O)cc1	10%	1%	.	15%	5.5	1.6	12%
CN1CCN(NC(=O)c2ccc(Cl)c([N+](=O)[O-])c2)CC1	-3%	4%[15.4 µM]	-2.5%	17%	0.8	3.8	1.9%
CC[C@]12c3[nH]c4ccc(Cl)cc4c3CCN1C(=O)[C@@H](CC(=O)NCc1ccco1)C[C@@H]2C(=O)N1CCN(C(=O)C2CC2)CC1	.	0%	-1.7%	.	-2.0	.	2.6%
Fc1ccc(-c2cc(C(F)(F)F)n3ncnc3n2)cc1	9%	-4%	4.2%	-33%[inhibitor]	-4.1	-2.0	0.3%
COCCCNC(=O)c1ccc(CS(=O)(=O)Cc2cccc(C)c2)o1	12%	-5%	-1.1%	1%	2.2	0.1	0.7%
Cc1ccc(O)c(-n2nc3ccccc3n2)c1	-3%&4%	-12%	.	-5%[15.4 µM]	-0.5	0.6&-3.5	1.0%
O=C(COc1cccc2c1CCN(Cc1ccc(Br)cc1)C2=O)N1CCOCC1	-3%	?	.	-15%[15.4 µM]	0.4	0.5	2.4%
CCOC(=O)N1CCN(C(=O)COc2ccc3c(c2)C(=O)CC(C)(C)O3)CC1	5%	6%	3.7%	-6%	2.1	-2.6	1.8%
N#CC1=C(N)NC(SCc2ccc(Cl)cc2)=C(C#N)C12CCCCC2	5%	?	-1.8%	10%	2.1	-0.9	3.8%
NS(=O)(=O)c1ccc(CCNC(=O)CSc2nc3ccsc3c(=O)n2CCCCC(=O)O)cc1	-7%	4%	1.5%	?	-0.9	-2.2	0.4%
C[C@H](CO)N1C[C@H](C)[C@@H](CN(C)C(=O)Nc2ccc(C(F)(F)F)cc2)Oc2ccc(NC(=O)C3CCCCC3)cc2C1=O	.	-3%	1.5%	.	-1.5	.	0.3%
COc1ccc(CCNC(=O)/C(C#N)=C/c2cccc(OCc3ccccc3)c2)cc1OC	-3%	-4%	-7.2%	-8%[15.4 µM]	4.6	9.0	?
COc1cccc(-c2nnc(NC(=O)CCS(=O)(=O)c3ccc(F)cc3)o2)c1	.	.	-9.8%	-56%[inhibitor]	-1.9	.	-1.7%
NC(=O)c1ccsc1NC(=O)c1ccco1	-10%	2%	-3.7%	-24%	1.9	9.9	-1.0%
O=C(/C=C/c1ccc(Cl)cc1)NCCSc1ccccc1	-2%	-5%	-1.1%	3%	-3.4	3.7	4.1%
Cc1c(Cl)c([N+](=O)[O-])nn1CCCC(=O)O	14%	-18%	.	25%[15.4 µM]	-1.0	-0.6	1.7%
C/C(=N\Nc1ccc(C(=O)O)cc1)c1ccc(Br)cc1	-27%	-14%	-2.1%	-13%	-2.3	1.7	-0.5%
O=C(NCc1ccc(F)cc1)c1cnc(Cl)c(Cl)c1	8%	-2%	.	-16%[15.4 µM]	-0.5	7.1	0.5%
Cc1ccc2nc(SCC(=O)c3ccc(O)cc3O)[nH]c2c1	50µM*	-9%	0.0%	0%	2.4	-0.9	4.5%
CCCN(CC(=O)Nc1ccccc1C)C(=O)C1CC(=O)N(c2ccc(CC)cc2)C1 (stereo unspecified)	.	13%	1.0%	-46%[inhibitor]	-4.0	.	1.4%
COC(=O)Nc1ccc(SCC(=O)c2ccc(Cl)cc2)cc1	22%	-6%	.	-6%	1.2	2.9	3.4%
C=CCN1C(=O)/C(=c2\sc3nc(=O)c(Cc4ccccc4)nn3c2=O)c2ccccc21	13µM*	4%	0.0%	-1%[15.4 µM]	-3.9	1.8	-2.1%
CC(OC(=O)c1ccc(Cl)nc1)C(=O)Nc1ccc(S(=O)(=O)N2CCCC2)cc1 (stereo unspecified)	.	4%	-3.1%	-7%	-2.5	.	-2.4%
COc1cc(NC(=O)CCCn2c(=S)[nH]c3ccccc3c2=O)cc(OC)c1OC	-1%	-2%	0.5%	-5%[15.4 µM]	-2.7	-2.7	2.3%
CCOc1ccccc1NC(=O)Cn1c(=O)c2ccccc2n(CC)c1=O	15%	-9%	-12%	-33%	-1.5	0.0	5.6%[38.3 µM]
O=C(Nc1ccc(C(=O)O)cc1)/C(=C\c1ccc2c(c1)OCO2)NC(=O)c1ccccc1Cl	.	.	-12%	-67%[inhibitor]	-2.2	.	-1.0%
CCOc1ccc2nc(SCC(=O)N(CC(C)C)c3c(N)n(Cc4ccccc4)c(=O)[nH]c3=O)[nH]c2c1	.	-3%	2.5%	-60%[inhibitor]	-0.5	.	1.8%
O=C(CCCc1ccccn1)c1ccc(-c2ccccc2)cc1	.	-21%	.	11%	-0.7	.	3.2%
CN(C(=O)CSc1ncccn1)C1CCS(=O)(=O)C1 (stereo unspecified)	.	8%	3.6%	?	-2.0	.	0.3%
CC(=O)NC1CC2CCCC(C1)N2CC(=O)N1CCCc2ccccc21 (stereo unspecified)	18%	11%	-1.3%	-68%[inhibitor]	-0.7	-0.8	0.5%
C[C@@H]1CN([C@@H](C)CO)C(=O)c2cccc(NS(C)(=O)=O)c2O[C@H]1CN(C)Cc1ccc(Oc2ccccc2)cc1	.	-9%	-15%	?	1.2	.	0.0%
Cc1ccc(S(=O)(=O)N2CCCC2)cc1S(=O)(=O)N1CCCC1	7%	-5%	0.7%	-1%	-2.8	5.5	0.5%
CN1CCC(Oc2ccccc2Sc2ccccc2)CC1	-27%	-2%	-3.2%	-8%[15.4 µM]	-3.1	4.2	-0.2%
N#C/C(=C/c1cccn1-c1cccc(C(=O)O)c1)c1ccc(Cl)cc1	9%	-31%	-0.4%	-6%[15.4 µM]	-12	-2.0	-1.5%
O=C(O)c1ccc(S(=O)(=O)Nc2cccc(CP(=O)(c3ccccc3)c3ccccc3)c2)cc1	16%	1%	-2.7%	15%	-0.8	0.7	2.1%
CCC(C)N(CCNC(=O)c1ccc2c(c1)NC(=O)c1ccccc1S2)C1CCCCC1 (stereo unspecified)	0%	-6%	1.9%	-9%	-6.3	-0.9	-1.7%
COc1cc(C(=O)N2CCN(S(=O)(=O)c3ccc(C)cc3C)CC2)ccc1OCC(=O)N1CCOCC1	.	-5%	-0.1%	-9%	-1.7	.	1.2%
CCOc1ccccc1NC(=O)C1CCCN1C(=O)c1cccs1 (stereo unspecified)	.	-3%	1.1%	-15%	-2.9	.	0.9%
O=c1c(OC2OC(CO)C(O)C(O)C2OC2OC(CO)C(O)C(O)C2OC2OC(CO)C(O)C(O)C2O)c(-c2ccc(O)c(O)c2)oc2cc(O)cc(O)c12 (stereo unspecified)	-30%	-5%	-6.4%	.	-3.5	-2.1	1.1%
COc1cccc2cc(C(=O)NCc3ccccc3Cl)c(=O)oc12	10%	10%	.	-65%	7.0	-3.4	12%
Cn1c(=S)[nH]c2scc(-c3cccs3)c2c1=O	?	-29%	-1.6%	10%[15.4 µM]	14	0.6	-0.1%
Cc1ccccc1C(=O)N1CCN(c2ccc(NC(=O)c3cccnc3Cl)cc2)CC1	24%	-17%	-12%	-11%[15.4 µM]	2.7	0.6	0.2%
C[C@@H](C(=O)N1CCN(c2ccccc2)CC1)N1C(=O)C2CC=CCC2C1=O (stereo partly specified)	.	7%	0.5%	28%	6.6	.	0.6%
CCCCn1c(SCC(=O)NC(C)CC)nc2ccc(N3CCOCC3)cc2c1=O (stereo unspecified)	56µM*	-1%	-3.7%	-2%	-2.2	2.9	10%
COC(=O)c1c(NC(=O)C2C3CCC(O3)C2C(=O)O)sc2c1CCCCCC2 (stereo unspecified)	?	16%	-20%	26%	0.6	3.4	0.6%
